Ab BasE inh: BasE siderophore enzyme inhibitors, primary screen, biochemical, Acinetobacter baumannii ATCC 17978, fluorescence polarization. purified BasE, fluorescence polarization binding displacement. inhibition, % (concentration not given with the values). actives 0.1% (n = 84,000);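 active means both replicates above 25% with normal brightness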;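 further: 0% = negative plate control signal and 100% = positive plate control signal; stock transfer was 100 nL into about 30 µL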
LANA-nucl inh: inhibitors of KSHV LANA-nucleosome binding, primary screen, biochemical, fluorescence polarization, FITC-LANA1-23, chicken nucleosomes | AID 720717, 2013 | FITC-LANA1-23 / chicken nucleosome fluorescence polarization; active compounds read low | z-score (concentration not given with the values) | actives 0.3% (n = 51,000);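 active means both repeat wells score below -2 in polarization z-score versus plate sample wells, excluding overly bright wells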;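 further: 100 nL library stock added to about 30 µL; numbers are from one replicate; some results filed as inactive read as strong as hits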
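Assay system: purified chicken nucleosomes with FITC-labelled LANA N-terminal peptide (1-23) / Probe or stimulus: 50 nM FITC-LANA1-23 probe / Compound dosing: pin-transferred compound, 100 nL / Times: compound with peptide–nucleosome mix 10–45 min at room temperature / Technique: fluorescence polarization, 480 nm excitation, 535 nm parallel and perpendicular emission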
* hit, by the source's call; nt = not tested or not shown; & = joins results of further samples. Only part of the results is shown; rates above refer to the full screens.

SMILES	Ab BasE inh	LANA-nucl inh
O=C(NC(NC1CCS(=O)(=O)C1)C(=O)c1ccc(Cl)cc1)c1ccco1 (stereo unspecified)	1.7	0.071
C/C=C/C(=O)OCc1cc(=O)oc2cc(NC(=O)OCC)ccc12	-0.6	nt
CN=C(NC#N)NCCSCc1csc(N=C(N)N)n1	nt	0.545
N#CC(C#N)=C1NC2=C(Cc3ccccc32)C(c2cccs2)=C1C#N	1.2	-0.246
O=C1C2C3C=CC(C3)C2C(=O)N1Cc1ccccc1 (stereo unspecified)	-0.9	2.59
COc1ccccc1N(C)S(=O)(=O)c1ccc(C(=O)Nc2ccccc2N2CCN(C)CC2)cc1	4.0	nt
CCn1c(SCC(=O)OC)nnc1-c1ccco1	2.7	-0.825
O=C1O[C@@H](CO)[C@H](O)[C@@H](O)[C@@H]1O	-0.5	-0.348&0.039
C(=N\Nc1nc(-c2ccc3c(c2)OCCO3)cs1)/c1ccc2c(c1)OCO2	2.3	1.33
Cc1c(C(=O)c2ccc(F)cc2)oc2ccccc12	nt	0.184
Cc1ccc(S(=O)(=O)NC(=O)NCC2CCN(S(=O)(=O)c3ccccc3)CC2)cc1	0.4	0.639
CSc1nc2ccc(S(=O)(=O)Nc3ccc4c(c3)COC4=O)cc2s1	0.3	1.03

The closing two entries of the section above are carried over, then new ones follow.
SMILES	Ab BasE inh	LANA-nucl inh
Cc1ccc(S(=O)(=O)NC(=O)NCC2CCN(S(=O)(=O)c3ccccc3)CC2)cc1	0.4	0.639
CSc1nc2ccc(S(=O)(=O)Nc3ccc4c(c3)COC4=O)cc2s1	0.3	1.03
CCOC(=O)c1c(C)[nH]c(C)c1C(=O)COC(=O)c1ccncc1	-4.7	nt
O=C(Nc1cccc(S(=O)(=O)c2cccc(NC(=O)C3CCCO3)c2)c1)C1CCCO1 (stereo unspecified)	-1.8	-0.951
COc1ccc(S(=O)(=O)N2CCCCCC2)cc1C(=O)OC(C)C(N)=O (stereo unspecified)	0.1	nt
CCc1nn(CC(=O)N2CCc3ccccc32)c(=O)c2cccn12	0.7	-0.609
CC1S/C(=N\Nc2ccc(Cl)cc2)NC1=O (stereo unspecified)	0.6	-0.263
CCOC(=O)N1CCC(N2Cc3cccc(C(=O)NC4CCN(Cc5ccccc5)CC4)c3C2=O)CC1	0.3	-1.21
c1ccc(CN2CCC3(CC2)Nc2ccccc2S3)cc1	nt	0.0375
Cc1sc2nc(SCC(=O)N(CCO)CCO)nc(N)c2c1C	-0.6	0.224
CC(C)CCNS(=O)(=O)c1cccc2nsnc12	2.1	-0.0355
COc1cc(OC)cc(C(=O)Nc2ccnn2C2CCCCC2)c1	-0.7	nt
CCOC(=O)N1CCN(C(=O)c2oc3ccc(S(=O)(=O)N(CC)CC)cc3c2C)CC1	1.1	0.182
COc1cc2c(cc1O)[C@@H](Cc1ccc(O)cc1)[N+](C)(C)CC2	0.4	-0.924
Cc1[nH]c2ccc(C(=O)OCC(=O)Nc3nnc(-c4ccccc4)o3)cc2c1C	-1.9	nt
O=C(Cn1nc(C(F)F)cc1C1CC1)N1CCCC1	1.1	0.277
CN(C(=O)c1cc2c(n(-c3ccccc3)c1=O)CCCC2=O)c1ccc(O)cc1	1.9	0.0125
O=C(c1ccc2c(c1)C(=O)N(Cc1ccco1)C2=O)N1CCN(c2ccccc2)CC1	2.1	nt
CC1(C)Cc2c(sc3nc(CCCc4ccccc4)n(N)c(=O)c23)CO1	-1.3	nt
O=C(CSc1nc(N2CCCCC2)nc(N2CCCCC2)n1)Nc1ccccc1	0.7	-0.704
O=C(O)C(C(=O)OCc1ccccc1)c1ccccc1 (stereo unspecified)	2.5	nt
O=C1CC(c2ccccc2)C(=O)N1c1ccc(F)cc1 (stereo unspecified)	-3.4	nt
O=C(O)C1=NN(C2CCS(=O)(=O)C2)C(=O)CC1 (stereo unspecified)	0.0	-0.678
CCOC(=O)c1c(NC(=O)CSc2nc(N)cc(=O)[nH]2)sc2c1CCCCC2	0.1	0.717
CC(=O)N1CCC(N(C(=O)c2ccc(F)cc2)c2ccc3c(c2)OCO3)CC1	0.9	1.1
O=C(C1CCNCC1)N1CCCCC1	0.7	nt
CCCN1C(=O)NC(CCC(=O)O)C1=O (stereo unspecified)	1.8	-0.203
c1ccc2c(Nc3ccc4c(c3)OCCO4)c3c(nc2c1)CCC3	2.9	-0.147
ONC(=Nc1ccccc1Cl)c1ccccc1Cl	-3.7	1.63
O=C(OC1CCOC1=O)c1ccc2c(c1)S(=O)(=O)c1ccccc1C2=O (stereo unspecified)	1.1	nt
N#C/C(=C(/O)CN1CCN(Cc2ccccc2)CC1)c1nc2ccccc2c(=O)[nH]1	0.5	nt
O=C(Cn1c(=O)oc2cc(S(=O)(=O)NCc3ccccc3)ccc21)N1CCCCCC1	-0.1	0.072
OCCC12CC3CC(CC(CO)(C3)C1)C2	-0.2	nt
COc1ccc(S(=O)(=O)N(CC(=O)N2CCOCC2)Cc2ccccc2)cc1C	-0.8	0.071
CCCNC(=O)CCc1c(C)nc2c(c(C)nn2-c2ccc(C)cc2)c1C	-4.3	1.32
CC1CCCCN1C(=O)c1cc(-c2ccccc2)on1 (stereo unspecified)	-0.7	-0.045
O=S(=O)(CCSc1ccc(C(F)(F)F)cn1)c1ccc(OC(F)(F)F)cc1	1.2	nt
O=C(O)CSc1nc(-c2ccccc2)cc(C(F)F)n1	1.2	-0.633
COC(=O)c1cc(S(=O)(=O)N2CCCCC2C)c[nH]1 (stereo unspecified)	-1.3	-1.42
CCOC(=O)C1=C(CN2c3ccccc3CC2C)NC(=O)NC1c1ccccc1 (stereo unspecified)	-0.2	0.969
N#C/C(=C\c1ccc(C(F)(F)F)cc1)c1csc2ccccc12	2.9	nt
C=CCn1c(=O)/c(=C\c2cccs2)s/c1=C(/C#N)C(=O)N1CCCC1	-0.4	nt
N#C/C(=C/c1ccc(-c2cccc(C(F)(F)F)c2)o1)C(=O)OC1CCCCC1	-1.9	0.0845
CN(Cc1nc2ccccc2n1C)CC1CCCCC1	-2.2	-0.038
Cc1ccc(/C=C/C(=O)Nc2ccc(-c3nnc4n3CCCCC4)cc2)o1	-3.4	nt
Cc1cc(Nc2ccc(C(=O)N3CCN(c4ccccn4)CC3)cc2)n2ncnc2n1	2.7	0.0405
Cc1cc(=O)[nH]c2c(C)c(Cl)ccc12	2.6	0.796
O=C1CC(Nc2ccc(F)cc2)C(=O)N1C1CCCC1 (stereo unspecified)	-0.3	-0.285
Cc1cccc(NC(=O)NCC2CC2)c1	0.1	0.556
CCN(CC)S(=O)(=O)c1ccc2oc(SCc3cn4ccsc4n3)nc2c1	0.9	nt
CC(C)CC(C(=O)Nc1ccccc1)N1Cc2ccccc2C1=O (stereo unspecified)	1.4	-0.408
COc1cc2ncnc(NCCCn3ccnc3)c2cc1OC	0.5	nt
CN1C(=O)N(C)C2(O)c3ccccc3/C(=N\N=C(N)N)C12O (stereo unspecified)	0.8	-0.921
O=C(NCc1ccco1)c1ccc(-c2cc3ccccc3oc2=O)cc1	-3.6	1.29
COc1ccc(N2CCCC2=O)cc1	nt	1
Cc1ccc(-c2csc3nnc(SCc4ccc5c(c4)OCO5)n23)cc1	0.9	-0.585
Cc1ccc(C2=NNC(=O)CC2)cc1C	-2.2	0.847
O=C(NCc1cccnc1)C1CCCCC1	-1.1	0.396
CCc1nc2oc(C(=O)c3ccc(Cl)cc3)c(N)c2c2c1COC(C)(C)C2	5.5	-0.499
NS(=O)(=O)c1ccc(N(S(=O)(=O)c2ccccc2)S(=O)(=O)c2ccccc2)cc1	1.4	nt
CCCCc1cc2c(=O)c(-c3cc4ccccc4o3)coc2cc1O	0.8	-0.344
S=C(Nc1ccccc1)N1CCN(c2ccccc2)CC1	2.5	-1.03

Exported comma-delimited: part of the list above.
Molecule,Ab BasE inh,LANA-nucl inh
CN(Cc1nc2ccccc2n1C)CC1CCCCC1,-2.2,-0.038
Cc1ccc(/C=C/C(=O)Nc2ccc(-c3nnc4n3CCCCC4)cc2)o1,-3.4,nt
Cc1cc(Nc2ccc(C(=O)N3CCN(c4ccccn4)CC3)cc2)n2ncnc2n1,2.7,0.0405
Cc1cc(=O)[nH]c2c(C)c(Cl)ccc12,2.6,0.796
O=C1CC(Nc2ccc(F)cc2)C(=O)N1C1CCCC1 (stereo unspecified),-0.3,-0.285
Cc1cccc(NC(=O)NCC2CC2)c1,0.1,0.556
CCN(CC)S(=O)(=O)c1ccc2oc(SCc3cn4ccsc4n3)nc2c1,0.9,nt
CC(C)CC(C(=O)Nc1ccccc1)N1Cc2ccccc2C1=O (stereo unspecified),1.4,-0.408
COc1cc2ncnc(NCCCn3ccnc3)c2cc1OC,0.5,nt
CN1C(=O)N(C)C2(O)c3ccccc3/C(=N\N=C(N)N)C12O (stereo unspecified),0.8,-0.921
O=C(NCc1ccco1)c1ccc(-c2cc3ccccc3oc2=O)cc1,-3.6,1.29
COc1ccc(N2CCCC2=O)cc1,nt,1
Cc1ccc(-c2csc3nnc(SCc4ccc5c(c4)OCO5)n23)cc1,0.9,-0.585
Cc1ccc(C2=NNC(=O)CC2)cc1C,-2.2,0.847
O=C(NCc1cccnc1)C1CCCCC1,-1.1,0.396
CCc1nc2oc(C(=O)c3ccc(Cl)cc3)c(N)c2c2c1COC(C)(C)C2,5.5,-0.499

(continued)
SMILES	Ab BasE inh	LANA-nucl inh
Cc1ccc(-c2n[nH]c(=S)[nH]c2=O)cc1	2.2	nt
O=C(NCCN1CCOCC1)c1cc2sccc2n1Cc1ccc(Cl)cc1	-1.2	0.287
CC1=C(C(=O)N2CCOCC2)C(c2ccccc2OC(C)C)C2=C(CCCC2=O)N1 (stereo unspecified)	0.7	-0.87
CC1CCCCN1C(=O)Cn1nnc2c(cnn2-c2ccccc2)c1=O (stereo unspecified)	2.4	0.108
CNC(=S)N1CCc2ccccc21	0.9	nt
OC(Cn1cncn1)Cn1cncn1	0.3	nt
O=C1CC2CCC(CN1)N2S(=O)(=O)c1ccc(C(=O)O)cc1 (stereo unspecified)	0.2	-0.348
CC(NCc1nc2cc(Cl)ccc2c(=O)[nH]1)C1CC2CCC1C2 (stereo unspecified)	-1.6	nt
CN1c2ccccc2CC(C#N)(C#N)C12CCCCC2	-6.1	nt
CC1(C)CC(NC(=O)c2ccccc2C(=O)NC2CC(C)(C)NC(C)(C)C2)CC(C)(C)N1	1.1	nt
Cc1ccc(C2(CCN=Cc3ccccc3)CCOC(C)(C)C2)cc1 (stereo unspecified)	-1.1	nt
COC(=O)Nc1scc(-c2ccccc2)c1C(=O)NCc1ccco1	-0.6	1.23
CCOC(=O)c1noc2ncnc(N3CCc4cc(OC)c(OC)cc4C3C)c12 (stereo unspecified)	-0.5	1.02
N#Cc1cc(C#N)c(SCC(=O)NCc2ccco2)nc1N	4.3	nt
COC(=O)C1CCN(c2ccc(Cl)nn2)CC1	3.2	-0.937
Cn1c(=O)[nH]c(=O)c2c1nc(N1CCN(CC(N)=O)CC1)n2Cc1ccccc1F	4.1	-0.674
COc1cc(C[C@@H](CO)[C@H](CO)Cc2ccc(O)c(OC)c2)ccc1O	nt	0.98
COc1ccc(C(=O)N2c3ccccc3N3C(c4c(C)cc(C)cc4C)=NON23)cc1	4.2	nt
NNC(=O)c1ccc(OC2OCCOC2Oc2ccc(C(=O)NN)cc2)cc1 (stereo unspecified)	1.8	nt
O=C(OCc1nnc(-c2ccc(Cl)cc2)o1)C1=NN(c2ccccc2)C(=O)CC1	-0.3	nt
CCC(C)C(NC(=O)C1CCC(C)CC1)C(=O)NCc1cccnc1 (stereo unspecified)	2.0	-0.313
CCC(Oc1ccccc1)C(=O)N1C(=O)c2cccc(N)c2C1=O (stereo unspecified)	-3.2	nt
CC(=O)Nc1ccccc1-c1n[nH]c(=S)[nH]c1=O	0.5	0.205
O=C(Cn1cnnn1)Nc1nccs1	-2.0	nt
CC(Sc1nnc(-c2cccc(S(=O)(=O)N3CCCC3)c2)n1-c1ccccc1)C(N)=O (stereo unspecified)	1.9	nt
COC(=O)c1ccccc1SNc1ccccc1C	-0.2	-0.466
NC(=O)CSc1nc2ccc(Cl)cc2[nH]1	1.2	-0.0125
CCN(CC)c1ccc2cc(C(N)=O)c(=Nc3cccc(C)c3)oc2c1	6.8	nt
CCN(CC)CCNc1nc2c(c(=O)n(C)c(=O)n2C)n1CCc1ccccc1	-1.3	1.25
CN1C(=O)c2ccccc2N2C(=O)CCC12C(=O)O (stereo unspecified)	0.6	nt
Cc1cc(C)c(NC(=S)NCCO)c(C)c1	1.3	-0.131
NC(N)=N/N=C/c1ccc(O)c(Cl)c1	4.1	-0.716
CCN(CC)C(=O)c1cc(-c2cccs2)nn1-c1ccccc1	0.3	nt
Cc1ccc(Nc2ccc(N3CCN(C(=O)CCc4ccccc4)CC3)nn2)cc1	-2.2	2.43
CC1=CC(=O)CC(C)(C)C1(O)/C=C/C(C)=C/C(=O)O (stereo unspecified)	-2.7	1.44
O=C(c1cncc(Br)c1)N(c1nccs1)C1CCCCC1	-0.7	nt
CC(=O)N1CCc2cc(S(=O)(=O)NC(CC(C)C)C(=O)N(C)Cc3ccccc3)ccc21 (stereo unspecified)	0.6	0.272
CC(Sc1nnc(-c2ccncc2)n1C)C(=O)NC(N)=O (stereo unspecified)	-3.3	nt
NC(=O)C1CCN(C(=O)C2c3ccccc3C(=O)N3CCc4ccccc4C23)CC1 (stereo unspecified)	1.9	-1.15
Cc1cccc(C(=O)N/N=C/c2ccc3c(c2)n(C)c(=O)n3C)c1	-1.3	1.3
CCN(CC)C(=S)Oc1ccccc1C(=O)Nc1ccc(Cl)c(Cl)c1	2.2	nt

Source: PubChem BioAssay (ICCB-Longwood Screening Facility, Harvard Medical School)
